ALR H2O2 inh: inhibitors of human sulfhydryl oxidase ALR. P55789. purified ALR, DTT oxidation, H2O2 HRP-luminol luminescence. inhibition, % (test concentration not listed). 290,000 compounds, 3.8% hits. AID 485317;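 active = mean and each replicate at 75% or more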;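 also: stock transfer was 7.5 nL into about 7.5 µL; 0% = neutral wells and 100% = wells with inactivated enzyme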
Target sequence (P55789 whole entry, looked up): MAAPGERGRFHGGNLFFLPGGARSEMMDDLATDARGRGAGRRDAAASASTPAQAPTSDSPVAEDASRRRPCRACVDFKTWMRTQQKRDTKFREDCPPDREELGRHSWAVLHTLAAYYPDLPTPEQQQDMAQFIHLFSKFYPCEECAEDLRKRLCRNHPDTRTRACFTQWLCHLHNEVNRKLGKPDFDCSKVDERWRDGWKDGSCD
FGF22 binding: FGF22 (human) thermal shift binding | calls only at 9.99 µM | AID 651658 | recombinant FGF22 thermal shift, SYPRO orange fluorescence; percent of sucrose octasulfate shift, DMSO zero | 340,000 compounds, 1.5% hits | Q9HCT0;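 active = melting point raised past a set limit in the mean and every replicate; three in four hits are not shown here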
Target sequence (Q9HCT0 whole entry, looked up): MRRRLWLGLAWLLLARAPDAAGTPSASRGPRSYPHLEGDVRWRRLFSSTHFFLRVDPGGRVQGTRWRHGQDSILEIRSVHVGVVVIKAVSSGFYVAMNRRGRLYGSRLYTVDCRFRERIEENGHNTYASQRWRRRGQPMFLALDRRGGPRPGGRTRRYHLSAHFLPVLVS
E coli growth: inhibitors of Escherichia coli growth; OD600, 23 h; stronger effect = lower value; OD600 absorbance (test concentration not listed); 330,000 compounds, 0.21% hits;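 active = OD600 absorbance below the run mean of sample wells minus 3.6 SD, in any replicate, cut at about 0.56 in these data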;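 also: stock transfer was 300 nL into about 60 µL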
UCH37 inh: human UCH37 deubiquitinating enzyme inhibition; Q9Y5K5; purified proteasome/UCH37, Ub-AMC cleavage fluorescence; inhibition, % (no concentration beside the values); 330,000 compounds, 0.33% hits; AID 588478;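 active = mean of two replicates above 20%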;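 also: 0% = compound-free wells with enzyme and 100% = wells lacking proteasome; stock transfer was 100 nL into about 20 µL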
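system = Proteasome-associated human UCH37 deubiquitinase | amount = 0.15 nM proteasome as dispensed | medium = pH 7.4 Tris-HCl (50 mM) with ovalbumin, ATP-MgCl2, DTT | incubation = 30 min preincubation with enzyme, 25 min cleavage at room temperature | detection = AMC fluorescence 355/460 nm | read-out basis = percent inhibition | controls = no-proteasome and no-compound wells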
Beta2AR agonist: human beta-2 adrenergic receptor agonism by FAP | P07550 | Am2.2-beta2AR cells, FAP receptor internalization, flow cytometry; reference of the scale not given here | 340,000 compounds, 0.43% hits | response, % (test concentration not listed);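 active = response above a set limit, near 3 SD of response in nonfluorescent compounds, cut at about 42% in these data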;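 also: stock transfer was 100 nL into about 11 µL; a reference agonist was the positive control; negative values mostly stem from fluorescent compounds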
Target sequence (P07550 whole entry, looked up): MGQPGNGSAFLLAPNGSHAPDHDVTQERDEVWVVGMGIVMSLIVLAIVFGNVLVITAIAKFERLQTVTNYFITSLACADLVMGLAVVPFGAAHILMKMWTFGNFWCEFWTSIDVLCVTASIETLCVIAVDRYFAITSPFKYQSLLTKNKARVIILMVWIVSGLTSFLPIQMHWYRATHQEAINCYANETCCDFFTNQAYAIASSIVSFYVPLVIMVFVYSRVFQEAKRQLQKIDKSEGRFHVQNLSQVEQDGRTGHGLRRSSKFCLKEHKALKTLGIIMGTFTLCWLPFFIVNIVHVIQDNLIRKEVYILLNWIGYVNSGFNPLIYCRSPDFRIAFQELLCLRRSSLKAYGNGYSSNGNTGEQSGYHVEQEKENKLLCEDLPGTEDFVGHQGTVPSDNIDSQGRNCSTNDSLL
HNF4A DNA FP: change in binding of human HNF4 alpha to DNA; P41235; HNF4a-FITC DNA binding, fluorescence polarization, 1 h; activity change, % at 10 µM; 360,000 compounds, 0.3% hits; AID 1224865; in the data active = activity change above about 30%, passing the limit was not always enough;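 also: controls were the assay level and a saturating level of protein; the project sought stronger binding though the title names inhibitors; some compounds called inactive have numbers as strong as hits; positive values seem to mean higher polarization but the record does not say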
LANA-H2B inh: blocks KSHV LANA binding to histone H2A/H2B | Q9QR71 | cell-free LANA-H2A/H2B peptide, fluorescence polarization | inhibition, % (no concentration beside the values) | 320,000 compounds, 0.6% hits | AID 2629; in the data active = inhibition mostly above about 10%, no sharp cut-off; inactive = mostly below about 6.7%;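 also: stock transfer was 7.5 nL into about 10 µL; 0% = median of vehicle wells and 100% = median of positive control wells; one replicate is shown; the record names a cut of 25% in any replicate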
An asterisk follows results filed as active; i = inactive; . = not tested or not shown.

LANA-H2B inh | E coli growth | ALR H2O2 inh | UCH37 inh | HNF4A DNA FP | FGF22 binding | smiles | Beta2AR agonist
-2.4 | 0.65 | . | 4.3 | -2.4 | . | O=C(Nc1cnc2ccccn2c1=O)c1ccc(F)cc1 | -2
-0.3 | . | 2 | -1.1 | -1.0 | i | CCN1C(=O)[C@H]2[C@@H](c3ccc(-c4ccc5c(c4)OCO5)c(OC)c3)N[C@@](CC(C)C)(C(=O)OC)[C@H]2C1=O | 3
3.0 | . | -7 | . | 3.3 | i | Fc1cnc(N/N=C/c2ccc(-c3ccc(Br)cc3)o2)nc1N1CCOCC1 | 0
3.0 | 0.68 | . | -1.3 | 3.9 | i | CCc1ccccc1NC(=O)CNCC(=O)Nc1ccccc1CC | 8
0.4 | 0.68 | -7 | 2.6 | 0.6 | i | O=C(O)C1CCCN1S(=O)(=O)c1ccc2c(c1)CCC2 (centres undefined) | -11
-1.5 | 0.72 | 4 | 2.2 | -1.0 | i | CCc1cccc(NC(=O)C2CCN(S(=O)(=O)c3ccc4c(c3)NC(=O)CO4)CC2)c1 | 2
-2.2 | 0.63 | . | 2.1 | 1.6 | i | C=CCN(CC=C)C(=S)NC(=O)c1ccc(OC)cc1 | 7
-0.1 | 0.66 | -2 | 2.8 | 1.1 | i | CN1CCN(C(=O)c2ccc3c(c2)N(Cc2cccc(Cl)c2)C(=O)c2ccccc2S3(=O)=O)CC1 | 14
1.7 | 0.65 | -8 | 2.8 | 0.7 | . | NS(=O)(=O)c1ccc(NC(=S)NCc2cccs2)cc1 | -11
3.2 | 0.71 | -5 | 2.3 | 0.1 | i | COc1ccc(NC(=O)CCN2C(=O)c3ccccc3C2=O)cc1 | 1
4.2 | 0.68 | . | -1.8 | 0.3 | i | Cc1cccc(C(=O)OCC(=O)NC(C)C2CC3CCC2C3)c1O (centres undefined) | -2
-4.9 | 0.69 | 63 | -2.4 | -4.4 | . | CCC1(C)Nc2ccccc2C(=O)N1O (centres undefined) | 2
-1.0 | . | -2 | . | -0.4 | i | O=C(Cn1cc(/C=N/NC(=O)c2ccccc2Br)c2ccccc21)Nc1ccc(F)cc1 | 2
-3.1 | 0.67 | -4 | -0.5 | 2.2 | i | Cc1ccc(C)c(S(=O)(=O)N2CCN(C(=O)c3cc(S(=O)(=O)NCc4ccccc4)ccc3C)CC2)c1 | 8
-5.6 | 0.66 | -1 | 4.6 | 2.9 | i | CC(C)=CCc1c(O)c(CC=C(C)C)c2c(c1O)C(=O)CC(c1ccc(O)cc1)O2 (centres undefined) | -10
-1.6 | 0.69 | 34 | 2.7 | -2.2 | . | CN1CCC(=NNC(=O)C(=O)Nc2ccccc2)CC1 | 2
-1.2 | 0.71 | -5 | 0.5 | 5.3 | . | O=C(Nc1ccccc1)c1ccc(Cn2cc(C(F)(F)F)ccc2=O)cc1 | -7
4.1 | 0.68 | 19 | 0.1 | -1.3 | . | CCCn1c(N)c(N2CCCCC2)c(=O)n(CC(=O)Nc2ccccc2)c1=O | -6
0.7 | 0.74 | -11 | -0.1 | -2.8 | . | COc1ccccc1C(=O)n1nc(-c2ccco2)nc1N | -4
1.2 | 0.66 | -2 | 3.0 | 0.8 | i | O=C(O)CCCNC(=O)c1nn(Cc2ccccc2)c(=O)c2ccccc12 | 1
3.1 | 0.66 | 1 | -0.9 | 2.8 | i | O=C(COc1ccc(F)cc1)Nc1cc(S(=O)(=O)N2CCCCC2)ccc1N1CCCCC1 | 10
0.2 | 0.64 | -6 | 1.1 | 3.2 | i | OCC1(Cc2ccccc2C(F)(F)F)CCN(Cc2ccccc2)CC1 | -6
-5.0 | 0.69 | -5 | 6.0 | -4.3 | . | Cc1cccc(CSc2ncnc3c2cnn3Cc2ccccc2)c1 | -2
-1.1 | 0.68 | 5 | 0.9 | -4.4 | i | COc1ccc(C(=O)Nc2cc(C)nn2-c2ccc(F)cc2)cc1 | 1
7.5 | 0.71 | -8 | -0.6 | 3.9 | i | COc1ccc(CN2CCNC(=O)C2CC(=O)NCCC2=CCCCC2)cc1OC (centres undefined) | -3

Reformatted tab-delimited: part of the list above
SMILES	LANA-H2B inh	E coli growth	ALR H2O2 inh	UCH37 inh	HNF4A DNA FP	FGF22 binding	Beta2AR agonist
CCC1(C)Nc2ccccc2C(=O)N1O (centres undefined)	-4.9	0.69	63	-2.4	-4.4	.	2
O=C(Cn1cc(/C=N/NC(=O)c2ccccc2Br)c2ccccc21)Nc1ccc(F)cc1	-1.0	.	-2	.	-0.4	i	2

Additional records follow:
LANA-H2B inh | E coli growth | ALR H2O2 inh | UCH37 inh | HNF4A DNA FP | FGF22 binding | smiles | Beta2AR agonist
3.7 | 0.63 | -5 | 4.3 | -0.4 | . | Cc1ccc(OCCC(=O)OCC(=O)C(C)(C)C)cc1 | -2
-12 | 0.75 | 1 | -6.7 | 2.2 | . | CS(=O)(=O)N1CCN(c2ccc(NC(=O)c3ccc(-c4ccc(Cl)cc4)o3)cc2)CC1 | 3
4.5 | 0.65 | 2 | 2.2 | -1.0 | i | Cc1cccc(N2CN=C3SCC(=O)N3C2)c1 | -7
-4.8 | 0.67 | 12 | 0.8 | -0.8 | i | CC(NC(=O)CN1C(=O)NC2(CCCC2)C1=O)c1ccc(Cl)cc1Cl (centres undefined) | -5
-3.6 | 0.69 | -2 | 0.4 | 0.8 | . | Cc1ccc(C)c(NC(=O)CCN2CCOCC2)c1 | 0
0.2 | 0.7 | -6 | 3.2 | -1.2 | i | Cc1ccc(C(=O)Nc2nnc(C)s2)cc1 | 0
-1.6 | . | 4 | . | -2.2 | . | CC(C)(C)C(=O)O/N=C1/C(=O)N(c2ccccc2)c2ccccc21 | 5
4.1 | 0.68 | -1 | 3.0 | 4.9 | . | COc1ccc(CN2C(=O)CS(=O)CC2=O)cc1OC | 2
-0.9 | 0.7 | -11 | 2.2 | 1.0 | . | CCOc1cc(N2C(=O)CC3CS(=O)(=O)CC32)c(OCC)cc1NC(=O)c1ccccc1 (centres undefined) | -14
2.0 | 0.68 | 3 | 3.5 | 3.3 | i | CCCCn1c(N)c(N(CCOC)C(=O)COC(=O)CCOc2ccccc2)c(=O)[nH]c1=O | 12
-0.9 | 0.71 | -4 | 2.9 | 1.4 | . | CCOC(=O)CN(C(=O)Cn1nnc(-c2ccc(C)cc2)n1)C(CC)C(=O)NC1CCCC1 (centres undefined) | -1
-1.4 | 0.67 | . | 7.0 | -2.9 | i | C[C@H](Nc1ccc(C(F)(F)F)cc1[N+](=O)[O-])C(=O)O | -5
-3.0 | . | -19 | . | -1.0 | . | Cn1c(Cl)c(/C=N/OC(=O)c2ccccc2Cl)c2ccccc21 | 0
-0.3 | 0.78 | -25 | 2.2 | 1.7 | i | COc1ccc(OC)c(NC(=O)C2CCCN(S(=O)(=O)c3cccc4cccnc34)C2)c1 (centres undefined) | 5
-15 | 0.72 | -13 | 2.5 | 2.7 | i | COc1ccc(C)cc1NC(=O)Nc1cccc(C)c1 | -2
6.0 | 0.71 | -1 | 2.0 | -1.8 | . | COCCCNc1cc(C)nc2ccccc12 | 0
1.7 | 0.74 | 4 | 2.0 | 0.4 | . | Cc1cc(Cl)c(S(=O)(=O)Nc2ccc3c(c2)OCCO3)cc1OCC(N)=O | -4
-0.3 | 0.58 | -11 | 1.1 | 0.0 | i | CC1CCCN(S(=O)(=O)c2ccc(NC(=O)Cc3ccc(S(=O)(=O)N4CCOCC4)s3)cc2)C1 (centres undefined) | -2
0.6 | . | 24 | . | -2.2 | i | COc1ccc(/C=C2\SC(=S)N(NS(=O)(=O)c3ccc(C)cc3)C2=O)c(OC)c1 | 8
-4.6 | 0.69 | -33 | 5.3 | -0.8 | i | Cc1ccc(-c2csc3ncnc(Nc4ccc(C(=O)O)cc4)c23)cc1 | 15
-5.9 | 0.69 | 94* | 0.8 | 0.5 | . | CCc1cc(-c2n[nH]c(=S)n2C(C)c2ccccc2)cs1 (centres undefined) | 9
-2.3 | 0.7 | 61 | 4.3 | 3.1 | . | S=c1[nH]c2ccccc2o1 | 0
3.5 | 0.72 | 26 | 5.3 | 2.5 | . | CCOC(=O)c1c(CN2CCCCC2)n(C)c2cc(Br)c(O)c(CN(C)C)c12 | 0
-0.6 | 0.74 | 0 | 3.3 | -2.1 | i | CCOC(=O)C1CCN(C(=O)NC23CC4CC(CC(C4)C2)C3)CC1 | 10
-2.9 | 0.74 | -10 | -4.5 | 0.5 | . | Cc1ccc2[nH]c(=O)c(C(c3nnnn3CCc3ccccc3)N3CCOCC3)cc2c1 (centres undefined) | 6
-2.0 | 0.64 | -4 | 2.2 | 1.3 | i | CC1CN(C(=O)COC(=O)c2ccc(O)cc2)CC(C)O1 (centres undefined) | 2
3.1 | 0.72 | -7 | 4.9 | -5.1 | . | O=C(COc1ccc(Cl)cc1)N1CCCCC1 | 5
-0.4 | 0.65 | -6 | 2.3 | 3.2 | i | CCNC(=O)COc1ccc(OCc2ccccc2)cc1 | 2
3.2 | 0.69 | -1 | 5.2 | 1.3 | i | Cc1cccc(OC(C)C(=O)N2CCc3ccccc3C2)c1 (centres undefined) | -10
0.6 | 0.63 | . | 1.7 | -1.1 | i | Cc1cccc(-n2c(-c3ccncc3)n[nH]c2=S)c1C | 12
-5.3 | 0.68 | 25 | 0.9 | 1.5 | i | O=C(Oc1coc(CSc2ncccn2)cc1=O)c1cccs1 | -1
1.5 | 0.66 | . | 1.1 | 2.0 | i | CC(C)/C=C/C(=O)N1CCCC(N2CCN(c3ccccc3F)CC2)C1 (centres undefined) | -5
0.0 | 0.67 | . | 6.0 | . | . | CCCN1C(=O)/C(=C/c2ccc(C)o2)NC1=S | .
1.5 | 0.69 | -3 | -0.4 | 1.8 | i | O=C(Nc1cccc(F)c1)c1cc(S(=O)(=O)N2CCOCC2)cs1 | 9
2.2 | . | 0 | . | 3.1 | i | O=C(C[n+]1ccccc1)N/N=C/c1c(F)cccc1Cl | -2

Gathered by group, the entries above containing two or more sulfur atoms
LANA-H2B inh | E coli growth | ALR H2O2 inh | UCH37 inh | HNF4A DNA FP | FGF22 binding | smiles | Beta2AR agonist
1.7 | 0.65 | -8 | 2.8 | 0.7 | . | NS(=O)(=O)c1ccc(NC(=S)NCc2cccs2)cc1 | -11
-3.1 | 0.67 | -4 | -0.5 | 2.2 | i | Cc1ccc(C)c(S(=O)(=O)N2CCN(C(=O)c3cc(S(=O)(=O)NCc4ccccc4)ccc3C)CC2)c1 | 8
-0.3 | 0.58 | -11 | 1.1 | 0.0 | i | CC1CCCN(S(=O)(=O)c2ccc(NC(=O)Cc3ccc(S(=O)(=O)N4CCOCC4)s3)cc2)C1 (centres undefined) | -2
0.6 | . | 24 | . | -2.2 | i | COc1ccc(/C=C2\SC(=S)N(NS(=O)(=O)c3ccc(C)cc3)C2=O)c(OC)c1 | 8
-5.9 | 0.69 | 94* | 0.8 | 0.5 | . | CCc1cc(-c2n[nH]c(=S)n2C(C)c2ccccc2)cs1 (centres undefined) | 9
-5.3 | 0.68 | 25 | 0.9 | 1.5 | i | O=C(Oc1coc(CSc2ncccn2)cc1=O)c1cccs1 | -1
1.5 | 0.69 | -3 | -0.4 | 1.8 | i | O=C(Nc1cccc(F)c1)c1cc(S(=O)(=O)N2CCOCC2)cs1 | 9

Screens: PubChem, several laboratories

Only part of the results is shown; count on the stated rates, not on these rows.
